Screens from PubChem.
HIV TAR-Tat: HIV-1 TAR-Tat binding disruption; HIV-1 TAR RNA, Tat peptide displacement FRET; hits give high values; z-score (test concentration not listed); 100,000 tested, 0.6% active; AID 1259389;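 note: score is relative to mean and SD of negative controls; some compounds called inactive have numbers as strong as hits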
CDC25B-CDK2 inh: human CDC25B-CDK2/CyclinA binding inhibition; z-score (test concentration not listed); AID 1259370; HTRF CDC25B-CDK2/CyclinA binding, anti-His/anti-Flag; hits give high values; P30305+P24941; 94,000 tested, 0.72% active;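 note: score is relative to mean and SD of negative controls; strong numbers were not always called active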
Numbers without * were called inactive; / = no result given.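 Rule for the calls: active = z-score from 3 up in half or more of its runs; inactive = the rest.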 The order is random; 0.89% or so of the library scored in one or more.

SMILES	HIV TAR-Tat	CDC25B-CDK2 inh
Cc1cc2oc3c(c(=O)c2cc1C)C(c1ccc(C(C)(C)C)cc1)N(CCCN(C)C)C3=O (stereo not drawn)	-0.68	0.01
COC(=O)c1cc(NC(=O)c2ccc(-c3ccc([N+](=O)[O-])cc3OC)o2)cc(C(=O)OC)c1	/	-1.33
COC(=O)c1cc(OC)c(OC)c(OC)c1NC(=O)c1cccs1	/	-0.96
Cc1ccc(NC(=O)CSc2nc(N)c3c4c(sc3n2)CSC(C)(C)C4)cc1	-0.72	-1.45
CCCNc1nc(NCC)nc2c1cnn2C	0.67	/
O=C(CCc1nnc2ccc(NCc3ccco3)nn12)N1CCN(c2ccccc2)CC1	2.32	/
Clc1cccc(-n2ncc3c(NCCN4CCOCC4)ncnc32)c1	0.98	/
CCc1cc(C(=O)NCC(C)C)no1	0.4	-1.13
Cc1nc(Nc2ccccc2)nc2c1nnn2-c1ccccc1	-0.71	-1.39
CC(C)Cc1nn2c(=O)cc(COC(=O)c3ccccc3F)nc2s1	0.48	/
O=S(=O)(Cc1ccccc1)NCc1cccn1Cc1cccc(F)c1	0.97	/
CCOc1cc(C2NC(=O)CCC2[N+](=O)[O-])cc(Br)c1OC (stereo not drawn)	0.77	-1.52
CCc1cc2c(cc3c(=O)n(CC(=O)NCCN4CCOCC4)nc(CC)n32)s1	0.86	-0.94
CC(=O)OC[C@@H]1O[C@H](n2cnc3c(=O)[nH]c(N)nc32)[C@@H](OC(C)=O)[C@H]1OC(C)=O	/	-3.08
CCOC(=O)c1sc2ncnc(Oc3ccccc3F)c2c1C	1.74	-0.45
Cn1c(=O)n(C)c2cc(Nc3cc(N4CCCC4)ncn3)ccc21	-1.59	1.56
CCOC(=O)c1c[nH]c2onc(C)c2c1=O	/	-1.9
CN(CC1CCCO1)S(=O)(=O)c1ccc(C(=O)Nc2sc3c(c2C(N)=O)CCC3)cc1 (stereo not drawn)	7.58*	/
Cc1cc2c(N)cccc2nn1	/	17.2*
O=C(O)CCc1nc2ncccc2c(=O)n1Cc1ccc(F)cc1	-0.6	-0.79
COc1ccc2nc(NC(=O)Nc3ccccc3Cl)sc2c1	0.52	-2.39
O=C(Cn1c(=O)oc2ccccc21)Nc1cc(F)ccc1F	-0.62	/
CC1(C)Cc2c(sc3ncn4nc(CCC(=O)O)c(=O)nc4c23)CO1	1.38	-0.9
COC(=O)c1ccc2c(c1)NC(=O)CN2	-4.08	/
Cc1ccccc1-c1noc(-c2cccnc2NC2CCCCC2)n1	1.41	-2.38
Cc1nnsc1C(=O)Nc1cc(-c2ccccc2)nn1C	/	-1.36
Cc1c(Cl)cccc1NC(=O)Nc1c[nH]c(=O)[nH]c1=O	-0.23	/
Cc1ccn2c(NC3CCCC3)c(-c3cccs3)nc2c1	-2.44	-0.41
Cc1nnc2c(NCc3ccc4c(c3)OCO4)nc3ccc(C(=O)c4ccccc4)cc3n12	-0.31	-2.3
CCOC(=O)N1CCC(Nc2c(NC3CCCCC3C)c(=O)c2=O)CC1 (stereo not drawn)	2.25	-1.91

Next section, overlapping the part above by five compounds.
SMILES	HIV TAR-Tat	CDC25B-CDK2 inh
Cc1nnsc1C(=O)Nc1cc(-c2ccccc2)nn1C	/	-1.36
Cc1c(Cl)cccc1NC(=O)Nc1c[nH]c(=O)[nH]c1=O	-0.23	/
Cc1ccn2c(NC3CCCC3)c(-c3cccs3)nc2c1	-2.44	-0.41
Cc1nnc2c(NCc3ccc4c(c3)OCO4)nc3ccc(C(=O)c4ccccc4)cc3n12	-0.31	-2.3
CCOC(=O)N1CCC(Nc2c(NC3CCCCC3C)c(=O)c2=O)CC1 (stereo not drawn)	2.25	-1.91
CN1CCN(C(=O)c2ccc3nc(-c4ccc(F)cc4)c(-c4ccc(F)cc4)nc3c2)CC1	3.13	/
COc1ccc(CCNC(=S)NC2CC3CCC2C3)cc1OC (stereo not drawn)	/	0.85
O=C1c2ccccc2OCC1c1ccccc1 (stereo not drawn)	/	-2.39
CC(C)NC(=O)CCSc1nc(-c2ccco2)cc(C(F)(F)F)n1	0.23	-2.05
O=C(O)C1CCN(S(=O)(=O)c2ccccc2Br)CC1	0.48	1.04
C=Cc1ccc(CSc2nncn3c2cc2occc23)cc1	2.44	/
O=C(Cc1ccc2c(c1)OCO2)N1CCC(n2nc(-c3ccccc3)oc2=O)CC1	1.1	1.38
O=C(NCC1COc2ccccc2O1)c1cc2c(=O)[nH]c3ccccc3c2s1 (stereo not drawn)	0.14	-3.3
COC(=O)c1sc(N2C(=O)c3oc4ccccc4c(=O)c3C2c2ccc(C(C)C)cc2)nc1C (stereo not drawn)	2.06	-0.95
O=C(NCc1ccc(F)cc1)c1cc2n(n1)C(C(F)(F)F)CC(C1CC1)N2 (stereo not drawn)	0.37	-0.5
O=C1NC(c2cccc(O)c2)c2c1n[nH]c2-c1ccco1 (stereo not drawn)	-0.63	2.27
O=S(=O)(c1cc(-c2noc(C3CC3)n2)cs1)N1CCN(c2cccc(Cl)c2)CC1	0.47	/
Fc1ccc(Nc2nc(Nc3ccc(F)cc3)nc(N3CCOCC3)n2)cc1	/	-0.51
Cc1cc(=O)[nH]c(SCC(=O)O)n1	-0.24	-1.95
Cc1ccc(-c2nc3c(c(=O)[nH]2)Cc2ccccc2O3)cc1	2.16	-2
CCN1C(=O)Cc2cc(NS(=O)(=O)c3ccccc3)ccc21	0.15	/
CC(C)(C)c1ccc(C(=O)N/C(=C\c2cccs2)C(=O)Nc2ccc(S(N)(=O)=O)cc2)cc1	/	-15.2
O=C(c1cc(-c2cccs2)on1)N1CCCC1c1ccccc1Cl (stereo not drawn)	-1.1	-1.18
COc1ccc(C(=O)Cn2nnc3sc4c(c3c2=O)CCCC4)c(OC)c1	0.27	-2.68
COc1ccc(CN2CC34C=CC(O3)C(C(=O)O)C4C2=O)cc1 (stereo not drawn)	0.74	0.47
O=C1NC(=O)C(CC(=O)N(Cc2ccco2)C2(C(=O)NC3CCCC3)CCCCC2)N1 (stereo not drawn)	/	0.19
O=C(O)c1ccc(CNC2CCCc3ccccc32)s1 (stereo not drawn)	3.96	-1.34
Cc1c(NC(=O)c2c(-c3ccccc3)c(-c3ccccc3)nn(C)c2=O)c(=O)n(-c2ccccc2)n1C	1.71	-1.1
O=C(NC1CC1)c1ccc(N2Cc3ccccc3Oc3ncccc32)s1	0.53	/
COc1ccc(OC)c(/C=C2\CCCC3=C2Nc2nnnn2C3c2cc(OC)ccc2OC)c1 (stereo not drawn)	/	-1.36
CSc1ccc(C2CC(=O)NC3=C2C(=O)CC(C)(C)C3)cc1 (stereo not drawn)	-0.69	-1.04
O=C(CC1(O)C(=O)Nc2ccccc21)c1cccc(Br)c1 (stereo not drawn)	/	-1.7
CCc1nonc1NC(=O)c1oc2ccc(C)cc2c1C	1.75	4.52
CCCS(=O)(=O)N1CCN(Cc2noc(CCC(=O)N3CCC(C)CC3)n2)CC1	0.17	/
CCOc1ccc(S(=O)(=O)n2nc(C)c(S(=O)(=O)N3CCOCC3)c2C)cc1	0.08	/

(continued)
SMILES	HIV TAR-Tat	CDC25B-CDK2 inh
O=c1c2sccc2n(Cc2cc(=O)n3cc(Cl)ccc3n2)c(=O)n1-c1cc(F)ccc1F	/	-1.08
COc1cc(NC(=O)C(C)SC2=Nc3ccccc3C3=NC(C(C)C)C(=O)N23)cc(OC)c1 (stereo not drawn)	1.11	/
Cc1ccc(C(=O)c2coc3ccc(OCC(=O)O)cc23)cc1	/	-0.42
CCOC(=O)C(C)NC(=O)c1noc2c1CCc1sccc1-2 (stereo not drawn)	0.25	/
NC(=O)C1CCN(c2c(S(=O)(=O)c3ccc(Cl)cc3)cnc3cc4c(cc23)OCCO4)CC1	1.29	-1.48
Cn1c(SCc2nc(-c3ccccc3)no2)nc2cc3c(cc2c1=O)OCO3	0.25	/
Cc1nn(S(=O)(=O)c2ccc(Br)cc2)c(C)c1S(=O)(=O)N1CCCC1	0.44	/
CCOC(=O)Oc1ccc2c(=O)c(-c3ccccc3Cl)coc2c1	0.95	-0.4
CC1=C(C(=O)OCCc2ccccc2)C(c2ccccn2)C2=C(CCCC2=O)N1 (stereo not drawn)	1.25	-0.36
Cc1ccc(S(=O)(=O)N2CCSC2c2ccc3c4c(cccc24)CC3)cc1[N+](=O)[O-] (stereo not drawn)	/	-1.91
Cn1c(=O)c2conc2c2c(=O)n(-c3ccccc3)c(=O)n(-c3ccccc3)c21	/	-1.82
O=C(NCc1cccs1)C1C2C=CC3(CN(CCCN4CCOCC4)C(=O)C13)O2 (stereo not drawn)	/	-0.59
O=C(O)c1cc2cc3ccc(Cl)cc3nc2o1	-0.92	1.41
O=C(Oc1ccccc1N1CCOCC1)c1cccs1	/	-1.5
CCCCOC(=O)C1=C(C)NC2=C(C(=O)CC(C)(C)C2)C1c1ccc(C)cc1 (stereo not drawn)	0.87	-2.17
CCOC(=O)C1CCN(c2ccc(-c3cccs3)nn2)CC1	-0.46	/
CC(C)CN(CC(C)C)S(=O)(=O)c1cc2c(cc1Cl)NC(=O)CO2	-7.8	/
CCN1C(=O)C2(/C(=C(/O)c3ccc(OC)c(C)c3)C(=O)C(=O)N2CCOC)c2ccccc21 (stereo not drawn)	1.2	0.8
Cc1nnc(N2C(=O)C(O)=C(C(=O)c3ccco3)C2c2ccccc2F)s1 (stereo not drawn)	-3.16	-0.54
Cc1ccc(-c2nc(NC(=O)CSc3nnc4ccccn34)ns2)cc1	-0.29	-0.33
CN1CCN(c2ncc3c(n2)CCN(Cc2cccc(F)c2F)C3)CC1	0.17	/
CCC1CCCCN1C(=O)CSC1=NS(=O)(=O)c2ccccc2N1 (stereo not drawn)	2.16	/
O=C(OC1=CN(Cc2ccccc2)S(=O)(=O)c2ccccc21)c1ccc(Br)cc1	0.59	0.26
O=C1c2oc3ccc(F)cc3c(=O)c2C(c2ccccc2F)N1Cc1ccc2c(c1)OCO2 (stereo not drawn)	-0.71	-1.41
Cc1ccc2ncc(NC(=O)c3ccc(C(C)(C)C)cc3)c(=O)n2c1	1.47	1.11
CCC1Sc2ccc(S(=O)(=O)CCC(=O)NC3CCC(C)CC3)cc2NC1=O (stereo not drawn)	0.57	/
CCN1CCN(Cc2nc3c(c(=O)n(C)c(=O)n3C)n2CCN2CCOCC2)CC1	-0.49	0.44
Cc1nc(N(C)C)ncc1C(=O)NCCC(C)C	1.16	/
Cn1nnnc1SCCCNCc1ccccc1F	0.69	0.49
Cc1cc(NC(C)C)n2nc(C(F)(F)F)c(-c3ccc(F)cc3)c2n1	0.02	-1.2

Next section
SMILES	HIV TAR-Tat	CDC25B-CDK2 inh
O=C1C=C(NCCN2CCOCC2)CC(c2ccco2)C1 (stereo not drawn)	0.15	-0.1
C=CCNc1nc(N2CCN(CC)CC2)c2cnn(C)c2n1	1.58	/
O=C(NC1CCCCC1)c1noc2c1CCc1sccc1-2	-1.18	-1.92
O=C(Nc1cc(F)ccc1F)c1cn2c3c(ccc(Cl)c3c1=O)OCC2	2.32	/
O=c1[nH]nc(SCc2ccc(Cl)cc2)c(=O)[nH]1	3.32	-1.13
Fc1cccc(-n2nnnc2-c2ccccc2Cl)c1	/	0.43
CCOc1ccc(S(=O)(=O)NCCn2c(C(F)(F)F)nc3ccccc32)cc1	0.95	/
CSC1=NCCN1S(=O)(=O)c1cc(F)ccc1F	0.44	0.56
O=C(CCc1nnc2ccc(N3CCCC3)nn12)NCC1CCN(C2CCCC2)C1 (stereo not drawn)	-0.05	/
O=c1cc(CSc2nnc(-c3cccs3)o2)nc2sc3c(n12)CCCC3	1.35	-1.77
Cc1nc(N(C)C)cc(N2CCN(S(=O)(=O)c3cc(C)c(C)cc3C)CC2)n1	0.13	-1.33
O=C(Nc1ccc(Cl)cc1)N1CC2CCCN2c2ccccc21 (stereo not drawn)	-1.06	/
CN(S(=O)(=O)c1ccc(F)cc1)S(=O)(=O)c1ccc(Cl)cc1	/	-0.02
Oc1ccccc1C1=NN2C(C1)c1ccccc1OC2c1ccccc1 (stereo not drawn)	0.21	-0.8
COc1ccc2cc3cc(C(=O)NCc4cc(Br)ccc4OC)oc3nc2c1	/	-1.76
NC(=O)c1cc(S(=O)(=O)N2CCN(C(=O)c3ccco3)CC2)cs1	0.89	/
COC(=O)c1c(-c2ccccc2)csc1N	-0.09	/
CCCNC(=O)C1=CC(c2cccs2)=NS(=O)(=O)N1C	1.8	-2.03
COc1ccccc1N1CCN(C(=O)c2cccn3c(=O)c4cc(Br)ccc4nc23)CC1	1.08	/
Cc1ccc(OC(C)C(=O)N2CCN(c3cc(=O)n4nc(-c5ccc(C)cc5)sc4n3)CC2)cc1 (stereo not drawn)	0.36	/
O=S(=O)(NCc1ccccn1)c1ccc2[nH]c3c(c2c1)CCCCC3	0.91	/
Cc1ccc(Nc2c(-c3ccc(N(C)C)cc3)nc3cc(C)ccn23)cc1	/	-1.94
O=S(=O)(CCSc1nccc(-c2ccc(Cl)cc2)n1)c1ccccc1	/	-2.01

Looked up one by one from the list above, five records:
SMILES	HIV TAR-Tat	CDC25B-CDK2 inh
COc1ccc(CCNC(=S)NC2CC3CCC2C3)cc1OC (stereo not drawn)	/	0.85
Cc1nnc(N2C(=O)C(O)=C(C(=O)c3ccco3)C2c2ccccc2F)s1 (stereo not drawn)	-3.16	-0.54
CCc1cc(C(=O)NCC(C)C)no1	0.4	-1.13
Fc1cccc(-n2nnnc2-c2ccccc2Cl)c1	/	0.43
Cc1ccc2ncc(NC(=O)c3ccc(C(C)(C)C)cc3)c(=O)n2c1	1.47	1.11
